Vif TR-FRET: inhibitors of Vif binding to APOBEC3G peptide, primary screen, biochemical, TR-FRET, GST-Vif 1-94, biotin-A3G peptide, dose response retest (AID 1117319); Virion infectivity factor (Human immunodeficiency virus type 1 group M subtype B (isolate …; one-dose inhibition, %; IC50 in µM for titrated hits; TR-FRET GST-Vif / biotin-A3G peptide binding; higher % means a stronger effect; test concentration not given here; strong numbers were not always called active; 260,000 compounds, 0.57% hits;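 active means above the screen mean plus three standard deviations and confirmed in dose response; inconclusive means results disagree or hit not tested in dose response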;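 further: Vif residues 1-94 fused to GST binding biotinylated APOBEC3G peptide 110-148; 0% = full assay without inhibitor and 100% = GST in place of GST-Vif; retest series ran down from 100 µM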
HNF4A DNA FP: change in binding of human HNF4A to DNA, primary screen, biochemical, fluorescence polarization, FITC-DNA; 360,000 compounds, 0.3% hits; activity change, % at 10 µM; 1 h; Hepatocyte nuclear factor 4-alpha (Homo sapiens), P41235; in the data active means activity change above about 30%, passing the limit was not always enough;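 further: controls were the assay level and a saturating level of protein; the project sought stronger binding though the title names inhibitors; some compounds called inactive have numbers as strong as hits; positive values seem to mean higher polarization but the record does not say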
Target sequence (P41235 whole entry, looked up): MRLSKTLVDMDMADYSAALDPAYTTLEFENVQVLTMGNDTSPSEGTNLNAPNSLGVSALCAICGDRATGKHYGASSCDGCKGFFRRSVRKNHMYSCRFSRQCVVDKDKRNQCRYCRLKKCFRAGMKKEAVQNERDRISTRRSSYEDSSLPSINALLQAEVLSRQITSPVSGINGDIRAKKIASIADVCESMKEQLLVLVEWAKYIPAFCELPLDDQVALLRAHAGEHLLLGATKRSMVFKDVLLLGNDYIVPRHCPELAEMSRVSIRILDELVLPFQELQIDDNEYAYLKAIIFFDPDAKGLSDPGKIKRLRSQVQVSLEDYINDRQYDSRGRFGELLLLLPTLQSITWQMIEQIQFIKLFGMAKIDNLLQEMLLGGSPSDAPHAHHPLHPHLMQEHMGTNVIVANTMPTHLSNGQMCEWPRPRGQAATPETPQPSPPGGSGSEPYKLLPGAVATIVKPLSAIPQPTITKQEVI
LANA-H2B inh: blockers of LANA interaction with H2A/H2B – biochemical, FP readout, HTS, primary screen; cell-free LANA-H2A/H2B peptide, fluorescence polarization; 320,000 compounds, 0.6% hits; inhibition, % (test concentration not listed); in the data active means inhibition mostly above about 10%, no sharp cut-off; inactive means mostly below about 6.7%;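 further: stock transfer was 7.5 nL into about 10 µL; 0% = median of vehicle wells and 100% = median of positive control wells; one replicate is shown; the record names a cut of 25% in any replicate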
Beta2AR agonist: beta2AR agonists driving receptor internalization, primary screen, cell-based, FAP fluorogen, flow cytometry | Am2.2-beta2AR cells; reference of the scale not given here | Beta-2 adrenergic receptor (Homo sapiens), P07550 | 340,000 compounds, 0.43% hits | response, % (concentration not given with the values) | AID 504454, 2011;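 active means response above a set limit, near 3 SD of response in nonfluorescent compounds, cut at about 42% in these data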;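 further: stock transfer was 100 nL into about 11 µL; a reference agonist was the positive control; negative values mostly stem from fluorescent compounds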
Target sequence (P07550 whole entry, looked up): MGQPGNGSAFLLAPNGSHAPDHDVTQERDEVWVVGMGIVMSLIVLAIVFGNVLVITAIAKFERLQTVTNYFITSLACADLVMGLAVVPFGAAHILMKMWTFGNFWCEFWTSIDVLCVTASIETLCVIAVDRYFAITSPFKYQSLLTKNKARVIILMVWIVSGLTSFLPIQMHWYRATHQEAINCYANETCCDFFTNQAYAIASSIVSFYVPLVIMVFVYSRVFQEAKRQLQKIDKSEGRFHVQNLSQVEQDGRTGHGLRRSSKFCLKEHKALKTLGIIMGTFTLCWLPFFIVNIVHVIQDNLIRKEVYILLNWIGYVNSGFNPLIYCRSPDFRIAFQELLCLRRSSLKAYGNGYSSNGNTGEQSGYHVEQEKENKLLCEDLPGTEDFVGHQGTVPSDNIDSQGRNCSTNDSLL
ALR inh: inhibitors of human ALR sulfhydryl oxidase, primary screen, biochemical, H2O2 detection, HRP-luminol luminescence, single point. FAD-linked sulfhydryl oxidase ALR (Homo sapiens), P55789. purified ALR, DTT oxidation. inhibition, % (test concentration not listed). 290,000 compounds, 3.8% hits;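 active means mean and each replicate at 75% or more; inconclusive means only one of the two met; inactive means neither met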;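 further: stock transfer was 7.5 nL into about 7.5 µL; 0% = neutral wells and 100% = wells with inactivated enzyme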
Calb FLC: C. albicans growth inhibition with fluconazole, primary screen, CaCi-2 strain, Alamar Blue fluorescence. C. albicans CaCi-2 (fluconazole-resistant clinical isolate) + fluconazole, 48 h. growth inhibition, % (no concentration beside the values). 300,000 compounds, 0.57% hits. AID 1979, 2009;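 active means most replicates above 75%; inconclusive means exactly half above 75%; inactive means most below 75%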;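 further: all wells also contain fluconazole at 8 µg/ml as a sub-toxic cotreatment; 0% = median of DMSO wells and 100% = median of geldanamycin control wells; wells of about 8 µL received 7.5 nL stock; the first replicate is given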
RanGTP-Imp inh: inhibitors of RanGTP-importin-beta interaction, primary screen, biochemical, FRET, CFP-Ran, YFP-importin-beta, homogeneous | cell-free CFP-Ran/YFP-importin-beta FRET ratio | 300,000 compounds, 1.1% hits | AID 2216, 2009 | inhibition, % (concentration not given with the values) | Ran GTPase (GTP-bound) - importin-beta complex;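 active means most replicates above 15%; inconclusive means exactly half above 15%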;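 further: 0% = DMSO wells and 100% = Ran loaded with GDP instead of GTP; wells of about 40 µL received 100 nL stock; the first replicate is given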
Numbers without * were called inactive; u = inconclusive; x = no result given; & = joins results of further samples.

Letters – A = Vif TR-FRET; B = HNF4A DNA FP; C = LANA-H2B inh; D = Beta2AR agonist; E = ALR inh; F = Calb FLC; G = RanGTP-Imp inh
1	CCN1C(=O)/C(=C2\SC(N3CCCCC3)=NC2=O)c2ccccc21
  A = 9.2%; B = -2.3; C = -2.0; D = -9.1; E = x; F = 33.1; G = 3.0
2	Oc1c(Cl)cc(Cl)c2c1NCCC2
  A = u; B = -2.1; C = x; D = -3.2; E = x; F = 0.6; G = -2.5
3	CC(=O)c1c(C)[nH]c(C(=O)NNC(=O)c2ccc(C)cc2)c1C
  A = x; B = -0.5; C = -3.2; D = -1.1; E = x; F = x; G = x
4	CCOc1ccc(S(=O)(=O)NCCC(=O)Nc2nnc(C)s2)cc1
  A = x; B = 3.4; C = -1.2; D = 3.9; E = x; F = -1.1; G = 5.5
5	C=CCOc1cccc(/C=C\c2nc(O)c([N+](=O)[O-])c(=O)[nH]2)c1
  A = -5.0%; B = 0.6; C = 1.2; D = 2.1; E = 73.6; F = 3.8; G = -2.0
6	COc1cc(NC(=O)c2ccccc2)c(OC)cc1NC(=O)Cc1cccs1
  A = 23.2%; B = -15.1; C = -5.1; D = 0.2; E = -27.9; F = -4.1; G = 4.5
7	CCOC(=O)c1ccc(N2C(=O)CC(N3CCC(O)(c4ccc(Br)cc4)CC3)C2=O)cc1 (configuration not stated)
  A = -1.3%&-0.4%; B = 0.9; C = 3.1; D = -2.7; E = -11.0; F = -14.7; G = -4.5
8	Cc1cc(NC(=O)CN(C)CC(=O)Nc2ccc(Cl)c(C(F)(F)F)c2)no1
  A = x; B = -1.4; C = -9.1; D = -6.3; E = x; F = x; G = x
9	O=C(CSc1nnc(CNC(=O)c2cccs2)o1)c1ccccc1
  A = 7.7%; B = 2.7; C = 6.7; D = -2.7; E = 53.7; F = 28.7; G = u
10	CCOc1ccc(OCCCCN2CCCC2)cc1
  A = 12.8%; B = -0.1; C = 2.2; D = 0.6; E = 10.1; F = -10.8; G = u
11	O=C(CSc1nnc(-c2ccc(F)cc2)o1)Nc1ccc(S(=O)(=O)N2CCCCCC2)cc1
  A = -3.5%; B = 0.3; C = -5.1; D = 9.5; E = -0.7; F = 1.8; G = 4.5
12	CCC(c1nnc(SCC(=O)NC23CC4CC(CC(C4)C2)C3)o1)N(C)C (configuration not stated)
  A = 0.2%; B = 1.1; C = 3.5; D = -8.6; E = -0.4; F = x; G = x
13	O=C(N/N=C/C(Br)=C/c1ccccc1)c1cccs1
  A = x; B = -2.4; C = -6.8; D = -4.0; E = -1.4; F = -4.8; G = 6.7
14	Cc1ncsc1CCC(=O)N1CCCC(Nc2ccc(C(C)C)cc2)C1 (configuration not stated)
  A = x; B = -4.4; C = 0.7; D = -1.1; E = 85.9*; F = -7.1; G = -8.3
15	O=[N+]([O-])c1ccc(-c2csc3[n+]2CCS3)cc1
  A = 29.9%; B = -0.2; C = -2.2; D = 9.1; E = 4.3; F = -1.9; G = -2.4

Other results
Letters – A = Vif TR-FRET; B = HNF4A DNA FP; C = LANA-H2B inh; D = Beta2AR agonist; E = ALR inh; F = Calb FLC; G = RanGTP-Imp inh
16	COc1ccc(-c2[nH]ncc2CN(C)C(C)c2ccncn2)c(F)c1 (configuration not stated)
  A = 0.1%; B = -4.2; C = 0.7; D = -3.5; E = -3.4; F = -1.5; G = -1.7
17	Cn1c(=O)c2nc(SCCO)n(C)c2n(C)c1=O
  A = 3.6%; B = 2.9; C = x; D = -5.5; E = x; F = x; G = x
18	O=C1CN(C(=O)c2c(F)cccc2F)C(c2ccc(F)cc2)c2cc(F)ccc2N1 (configuration not stated)
  A = -3.9%; B = -0.4; C = 0.7; D = -6.2; E = -1.8; F = 3.2; G = u
19	COc1ccccc1CC(=O)NCCCc1ccccc1
  A = x; B = 0.7; C = 14.7; D = -3.2; E = -40.1; F = -23.7; G = 0.4
20	COc1ccccc1CN1CCCC(C(=O)N(C)Cc2ccccc2)C1 (configuration not stated)
  A = 23.6%; B = -0.4; C = x; D = -1.8; E = x; F = -5.8; G = 3.3
21	Clc1nc(-c2ccccc2)cc(-c2ccc(Br)cc2)n1
  A = -18.9%; B = 0.4; C = 2.3; D = -2.5; E = 0.2; F = 4.7; G = -2.2
22	Cc1ccc(C)c(N2CCN(C(c3ccc(N(C)C)cc3)c3nnnn3C(C)(C)C)CC2)c1 (configuration not stated)
  A = -7.7%; B = 0.8; C = 0.6; D = 13.6; E = x; F = -3.3; G = -6.6
23	O=C(NCCc1c[nH]c2ccccc12)c1cc2sccc2n1Cc1ccccc1
  A = 2.5%; B = 0.3; C = 2.4; D = 2.0; E = -16.0; F = 29.4; G = u
24	Nc1c(C(=O)N2CCOCC2)sc2nc3c(cc12)CCCC3
  A = x; B = 4.9; C = -5.2; D = -18.0; E = x; F = -4.7; G = 2.6
25	CCOc1ccc(C(=O)Nc2ccc(NC(=O)c3ccccc3)c(C)c2)cc1[N+](=O)[O-]
  A = x; B = -2.5; C = 4.0; D = -1.9; E = 7.9; F = 1.0; G = 2.1
26	COc1ccccc1N1CCC(N2CCN(CC(C)(C)C)C(CCO)C2)CC1 (configuration not stated)
  A = x; B = -3.8; C = 3.6; D = -6.5; E = 21.8; F = -24.6; G = 2.3
27	COc1ccc(/C=N\NC(=O)c2cccc(Br)c2)c(OC)c1
  A = x; B = 1.4; C = 0.9; D = 14.6; E = -5.4; F = -20.9; G = 1.7
28	CC1NC(=O)NC1CCCCCC(=O)Nc1ccc(F)cc1 (configuration not stated)
  A = u; B = 1.8; C = -1.9; D = -0.9; E = 1.1; F = 33.2; G = 3.0
29	O=C(Nc1ccccc1C(=O)O)c1cccc(F)c1
  A = 2.1%; B = 1.3; C = 0.0; D = -3.1; E = x; F = 18.7; G = 0.2
30	COc1ccc(CCCNC(=O)C2CCC(=O)N(CC3CCCCC3)C2)cc1 (configuration not stated)
  A = 31.1%; B = -1.0; C = 1.7; D = 0.1; E = -4.7; F = 1.6; G = -2.9

Additional structures:
Letters – A = Vif TR-FRET; B = HNF4A DNA FP; C = LANA-H2B inh; D = Beta2AR agonist; E = ALR inh; F = Calb FLC; G = RanGTP-Imp inh
31	COc1ccc(NC(C)C(=O)Nc2ccc(C#N)cc2)cc1Cl (configuration not stated)
  A = u; B = -3.6; C = 1.4; D = -6.3; E = 60.4; F = -2.9; G = 6.0
32	CCOC(=O)N1CCN(C(=O)CCN2C(=O)/C(=C\c3cccc(OC)c3)SC2=S)CC1
  A = x; B = 7.1; C = -0.7; D = -1.4; E = x; F = -8.3; G = 3.8
33	C(=N\n1cnnc1)/c1cccc2ccccc12
  A = -9.1%; B = 2.0; C = 2.1; D = 8.9; E = -20.6; F = -9.1; G = -0.7
34	CC(C)(C#N)Nn1cnnc1
  A = -2.0%; B = -1.0; C = 0.2; D = -0.6; E = -14.2; F = 12.4; G = 0.9
35	O=C(CCc1ccccc1)n1nc(-c2ccco2)nc1SCc1ccccc1
  A = 1.0%; B = -2.9; C = x; D = 0.6; E = x; F = x; G = x

Molecules above that contain fluorine, in the order listed:
Letters – A = Vif TR-FRET; B = HNF4A DNA FP; C = LANA-H2B inh; D = Beta2AR agonist; E = ALR inh; F = Calb FLC; G = RanGTP-Imp inh
8	Cc1cc(NC(=O)CN(C)CC(=O)Nc2ccc(Cl)c(C(F)(F)F)c2)no1
  A = x; B = -1.4; C = -9.1; D = -6.3; E = x; F = x; G = x
11	O=C(CSc1nnc(-c2ccc(F)cc2)o1)Nc1ccc(S(=O)(=O)N2CCCCCC2)cc1
  A = -3.5%; B = 0.3; C = -5.1; D = 9.5; E = -0.7; F = 1.8; G = 4.5
16	COc1ccc(-c2[nH]ncc2CN(C)C(C)c2ccncn2)c(F)c1 (configuration not stated)
  A = 0.1%; B = -4.2; C = 0.7; D = -3.5; E = -3.4; F = -1.5; G = -1.7
18	O=C1CN(C(=O)c2c(F)cccc2F)C(c2ccc(F)cc2)c2cc(F)ccc2N1 (configuration not stated)
  A = -3.9%; B = -0.4; C = 0.7; D = -6.2; E = -1.8; F = 3.2; G = u
28	CC1NC(=O)NC1CCCCCC(=O)Nc1ccc(F)cc1 (configuration not stated)
  A = u; B = 1.8; C = -1.9; D = -0.9; E = 1.1; F = 33.2; G = 3.0
29	O=C(Nc1ccccc1C(=O)O)c1cccc(F)c1
  A = 2.1%; B = 1.3; C = 0.0; D = -3.1; E = x; F = 18.7; G = 0.2

This is a random part of the collection. About 6.3% of those tested had a hit in this group.
